AmpC inh no det – blocks E. coli AmpC beta-lactamase in absence of detergent. P00811. AmpC nitrocefin hydrolysis, absorbance 480 nm, no detergent; potencies from a single point are estimates. Potency, µM (highest dose often 28.7 µM), for the others: at the highest dose activity change, negative = inhibition. actives 1.8% (n = 71,000); active = falling curve, for most hits resting on a single point; inconclusive = weak or doubtful change; inactive = flat or rising curve; also: % of control where 0% means no effect; about half of the hits show no inhibition at the top dose; a quarter of the inactives give rising signals
Target sequence (P00811 whole entry, looked up): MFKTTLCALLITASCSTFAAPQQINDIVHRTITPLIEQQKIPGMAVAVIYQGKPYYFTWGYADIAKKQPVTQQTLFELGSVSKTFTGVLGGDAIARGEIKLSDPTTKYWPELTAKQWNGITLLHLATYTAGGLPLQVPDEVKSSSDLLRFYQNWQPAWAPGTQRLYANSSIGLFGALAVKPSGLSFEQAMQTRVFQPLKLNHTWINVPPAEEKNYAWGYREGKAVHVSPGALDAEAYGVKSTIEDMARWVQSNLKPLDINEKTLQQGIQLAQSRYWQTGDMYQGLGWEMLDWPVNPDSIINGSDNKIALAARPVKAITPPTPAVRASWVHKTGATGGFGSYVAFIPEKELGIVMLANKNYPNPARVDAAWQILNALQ
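AmpC, 20 mM phosphate pH 7.0; 15 min cpd preinc, RT; start with nitrocefin (800 uM stock); A480 kinetic read, 20 s intervals, 4 min. No-enzyme wells = negative control.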
* hit, by the source's call; ? = inconclusive; [ ] = another dose, or the depositor's remark. Potency is read from the fitted curve at half-maximal effect. Only part of the results is shown. The share of hits here may be higher or lower than overall.

#	Molecule	AmpC inh no det
1	O=C(Cn1nc(C(F)F)cc1C1CC1)NCCC1=CCCCC1	38%
2	O=C(Nc1cccnc1)Nc1ccccn1	-7%
3	COc1ccc(OC)c(NC(=O)c2cc3sccc3n2C)c1	38%
4	COc1ncc2nc(CCc3ccccc3)c(=O)n(CCc3ccccc3)c2n1	2%
5	Cc1ccc(S(=O)(=O)N2CCCCC2)cc1C(=O)Nc1ncn[nH]1	6%
6	Cc1ccc(NC(=O)CCNS(=O)(=O)c2ccc3c(c2)oc(=O)n3C)cc1C	1%
7	COC(=O)c1cn(NC(=O)c2cnccn2)c(=O)c2ccccc12	-9%
8	O=C(CCS(=O)CCC(=O)NCc1ccccc1)NCc1ccccc1	9%
9	Cc1cc(C)n(C(=O)c2cccc(S(=O)(=O)N3CCCC3)c2)n1	12%
10	O=c1oc2ccccc2n1Cc1ccccc1Cl	4µM*
11	CCC1CO1 (stereo not drawn)	1%
12	CCCn1c(SCC(=O)Nc2ccccc2C(=O)OCC)nc2c1c(=O)n(C)c(=O)n2C	18%
13	Cn1c(COc2ccc3ccccc3c2)nnc1SCC(=O)O	-1%
14	CCN(CCC(=O)Nc1cc(OC)cc(OC)c1)Cc1ccccc1	24%
15	CCN(CC)CCOC(=O)C1(C2CCCCC2)CCCCC1	35%[12.8 µM]
16	COCCn1c(=O)c(CCc2ccccc2)nc2cnc(Oc3cccc(Cl)c3)nc21	7%
17	O=C1CC(c2ccccc2)n2nc(NC(=O)c3cccs3)nc2N1 (stereo not drawn)	-8%
18	COCCn1c(C)cc(C(=O)COC(=O)c2c(C)nn(Cc3ccccc3)c2C)c1C	131%
19	Nc1nc(CN2CCN(Cc3ccccc3)CC2)nc(Nc2ccc3c(c2)OCCO3)n1	38%
20	O=C(CSc1nnc(-c2ccco2)n1Cc1ccccc1)NC(=O)NCc1ccccc1	33%
21	CC(C)c1ccc(OCC(O)Cn2cnc3ccccc32)cc1 (stereo not drawn)	73%
22	CCCc1cc(=O)[nH]c(SCC(=O)N2CCC(C(=O)OCC)CC2)n1	8%
23	COc1ccc(C(=O)/C=C(\N)C(F)(F)F)c(O)c1	9%
24	Cc1cc(C)c(C#N)c(SCC(=O)Nc2nnc(-c3ccccc3)s2)n1	-20%
25	O=C(C1CCC(=O)N1Cc1ccccc1Cl)N1CCN(c2ccc(F)cc2)CC1 (stereo not drawn)	108%

As entered above.
#7 @ AmpC inh no det: -9%
#17 @ AmpC inh no det: -8%
#11 @ AmpC inh no det: 1%

The main list resumes, starting 7 compounds before the break.
#	Molecule	AmpC inh no det
19	Nc1nc(CN2CCN(Cc3ccccc3)CC2)nc(Nc2ccc3c(c2)OCCO3)n1	38%
20	O=C(CSc1nnc(-c2ccco2)n1Cc1ccccc1)NC(=O)NCc1ccccc1	33%
21	CC(C)c1ccc(OCC(O)Cn2cnc3ccccc32)cc1 (stereo not drawn)	73%
22	CCCc1cc(=O)[nH]c(SCC(=O)N2CCC(C(=O)OCC)CC2)n1	8%
23	COc1ccc(C(=O)/C=C(\N)C(F)(F)F)c(O)c1	9%
24	Cc1cc(C)c(C#N)c(SCC(=O)Nc2nnc(-c3ccccc3)s2)n1	-20%
25	O=C(C1CCC(=O)N1Cc1ccccc1Cl)N1CCN(c2ccc(F)cc2)CC1 (stereo not drawn)	108%
26	Cc1ccc(N2CC(C(=O)Nc3ccc4c(c3)OCCO4)CC2=O)cc1 (stereo not drawn)	20%
27	COc1ccc(CCNc2oc(COc3ccc(Br)cc3)nc2C#N)cc1OC	33%
28	COc1ccc(CC(=O)N2CC3(C)CC2CC(C)(C)C3)cc1OC (stereo not drawn)	117%
29	CCCn1c(=O)c(C(=O)Nc2ccccc2C(=O)OC)c(O)c2ccccc21	41%
30	Cc1cccc(NC(=O)COc2ccccc2C)n1	4%
31	O=C(Cn1nc(Cl)nc1Cl)Nc1ccccc1	-20%
32	O=S(=O)(NCC(c1cccnc1)N1CCN(c2ccc(F)cc2)CC1)c1ccc(F)cc1 (stereo not drawn)	92%
33	c1ccc(Cn2c(Sc3nnnn3-c3ccccc3)nnc2-c2ccccc2)cc1	14%
34	COc1cc2nc(C3CCC3)n(NC(=O)C3CCCC(OC)C3)c(=O)c2cc1OC (stereo not drawn)	91%
35	Cc1c(C(=O)N2CCN(c3ncccn3)CC2)sc2nc3n(c(=O)c12)CCCC3	26%
36	COCCn1c(C)cc(C(=O)CSc2nc(C)nc3sc4c(c23)CCC4)c1C	70%
37	COc1ccc(C)cc1S(=O)(=O)N1CCCC(C(=O)NCC2CCCO2)C1 (stereo not drawn)	31%
38	CN(C)CCSCCO	0%[5.75 µM]
39	Cc1csc(NC(=O)C(NS(=O)(=O)c2ccc(Br)s2)c2ccccc2)n1 (stereo not drawn)	?
40	COCCNc1cc(-c2ccccc2CN(C)C)ncn1	0%
41	CCN(CC)c1ccc2c(c1)C(=O)N(C)C2=O	1%
42	O=C(NCCc1ccc(Cl)cc1)c1nnc(Cc2ccc(Cl)cc2)o1	2%
43	Cc1nnsc1-c1nc2ccccc2[nH]1	-14%
44	NCCC[C@@H](CC(=O)N[C@@H]1CCNC[C@H]1C(=O)N[C@H](CC(=O)N[C@@H](CCC(=O)O)CC(=O)O)Cc1c[nH]c2ccccc12)NC(=O)C[C@H](Cc1ccccc1)NC(=O)[C@@H]1CCCC[C@H]1N	128%
45	CN1CCCC2(CCN(C(=O)c3cccn3C)CC2)C1	52%
46	O=C(NCCn1cc(SCC(=O)N2CCOCC2)c2ccccc21)c1ccccc1	56%
47	CN1CCN(P(=O)(c2ccccc2)c2nc3ccccc3s2)CC1 (stereo not drawn)	20%
48	c1ccc(-c2cccc(-c3ccccn3)n2)nc1	7%
49	O=C(Nc1ccc(F)cc1)C1CCC(N2C(=O)c3ccccc3C2=O)CC1 (stereo not drawn)	-5%
50	CCOC(=O)C1=C(C)SC2=NS(=O)(=O)CCN21	8%
51	Nn1c(SCC(=O)Nc2ccccc2)nnc1-c1cccnc1	-5%
52	CCCN1CCN(C(c2cc3cc4c(cc3[nH]c2=O)OCO4)c2nnnn2C(C)(C)C)CC1 (stereo not drawn)	24%
53	OCC1(c2cc(C(F)(F)F)n[nH]2)CCCCC1	6%
54	O=c1cc(N2CCc3ccccc3C2)[nH]c(=O)n1-c1ccc(Br)cc1	16µM*[single pt active]
55	O=C(C1CCCN(c2nnc(-n3cccc3)s2)C1)N1CCN(c2ccccc2)CC1 (stereo not drawn)	111%
56	CC(C)NCC(O)COCc1ccc(Cl)cc1 (stereo not drawn)	-4%
57	Cc1ccc(-n2c(O)c(C=NC3CCCC3)c(=O)[nH]c2=O)c(C)c1	2%
58	CCN1CCN(C(c2ccccc2F)c2nnnn2Cc2ccc3c(c2)OCO3)CC1 (stereo not drawn)	12%
59	O=C1c2ccccc2NC(c2ccc3c(c2)OCCO3)N1c1ccc2c(c1)OCCO2 (stereo not drawn)	4%
60	CCCOc1cccc(OCCSc2nc(C)cc(=O)[nH]2)c1	17%
61	CCOc1ccc(OCc2ccc(C(=O)NCc3ccncc3)o2)cc1	36%
62	O=C(CSc1nnc2ccccn12)NCCN1C(=O)CSC1=O	4%
63	Cc1c(C)n(C(=O)CN2CCC(C(N)=O)CC2)c2ccccc12	39%
64	O=C(CCN1C(=O)C2CC=C(Cl)CC2C1=O)N1CCCCC1 (stereo not drawn)	25%
65	Cc1cc(C)n(-c2ccc(C(=O)Nc3sccc3C(N)=O)cc2)n1	29%
66	Cc1ccc(-c2n[nH]c(=O)c3ccccc23)cc1N	-2%
67	COCC(=O)Nc1ccc(Nc2ccccc2)cc1	-4%
68	CCN(CC)CC(C)(C)NS(=O)(=O)c1ccc(Cl)cc1	8%
69	Cc1nnc(SC(C)C(=O)NCC2CCCO2)n1-c1ccccc1 (stereo not drawn)	0%
70	CC(=O)OCC(OC(C)=O)C(OC(C)=O)C(OC(C)=O)C(=O)Nc1ccccc1C (stereo not drawn)	-5%
71	O=C(CCCCC(=O)Nc1c(I)cc(I)c(C(=O)O)c1I)Nc1c(I)cc(I)c(C(=O)O)c1I	-3%[12.8 µM]
72	Cc1cc2cc(CN(Cc3ccc4c(c3)OCO4)Cc3nnnn3C3CCCC3)c(=O)[nH]c2cc1C	46%
73	O=C(CSc1nnc(Cc2ccccc2)n1C1CCCCC1)N1CCOCC1	65%
74	COc1ccc(-n2c(Cc3cccn3C)nnc2SCC(=O)Nc2cc(C)cc(C)c2)cc1	87%
75	CSc1n[nH]c(NCc2cccs2)n1	0%

2 entries picked at random from the list so far, as already listed:
#	Molecule	AmpC inh no det
71	O=C(CCCCC(=O)Nc1c(I)cc(I)c(C(=O)O)c1I)Nc1c(I)cc(I)c(C(=O)O)c1I	-3%[12.8 µM]
57	Cc1ccc(-n2c(O)c(C=NC3CCCC3)c(=O)[nH]c2=O)c(C)c1	2%

Continued:
No. | Structure | AmpC inh no det
76 | CC(=O)c1ccc(N2CCN(C(=O)c3ccco3)CC2)c(F)c1 | -2%
77 | NC(=O)CCn1nc(-c2ccc(Cl)cc2)c2ccccc2c1=O | 37%
78 | CCCCc1cc2c(c(NC(C)=O)n1)c(=O)oc1ccccc12 | -1%
79 | C[C@H](O)Cn1cnc2c1c(=O)n(C)c(=O)n2C | -1%[12.8 µM]
80 | O=C(NCc1ccccc1)c1cc(=O)nc2sc(-c3ccccc3)nn12 | 16%
81 | O=c1c(-c2ccc(F)cc2)nc2cncnc2n1C1CC1 | -1%
82 | CCn1ccc(C(=O)Nc2ccc(S(=O)(=O)Nc3ccccc3OC)cc2)n1 | 13%
83 | CN(C(=O)C1CCOC1)c1nnc(-c2cccnc2)s1 (stereo not drawn) | 4%
84 | COCCNC(=O)c1ccccc1-c1nc(-c2ccccc2Cl)no1 | 26%
85 | Cc1ccccc1CSc1nnc(C)c(=O)[nH]1 | 4µM*[single pt active]
86 | O=c1oc2ccccc2c(O)c1/C=N/c1ncccn1 | 5%
87 | Cc1nc2cnc(Oc3ccccc3)nc2n(C2CC2)c1=O | 31%
88 | CCC1(CCSC(=N)N)C(=O)NC(=O)NC1=O | 0%[5.75 µM]
89 | CN(c1ccccc1)c1nc2ccsc2c(=O)s1 | -5%
90 | CC(Sc1nncn1C)C(=O)Nc1nnc(C(C)C)s1 (stereo not drawn) | 3%
91 | O=C(C1CCN(S(=O)(=O)c2cccc3cccnc23)CC1)N1CCN(c2ccc(Cl)cc2)CC1 | 93%
92 | O=C1CCc2cc(S(=O)(=O)NC(Cc3ccccc3)C(=O)NCC3CCCO3)ccc2N1 (stereo not drawn) | 4µM*[single pt active]
93 | Cc1ccccc1C(=O)Nc1cccc(N)c1 | -6%
94 | CCN1CCN(C(c2cccs2)C(C)NC(=O)C(C)C)CC1 (stereo not drawn) | -2%
95 | Cc1cccc(OCCCC(=O)Nc2nccs2)c1 | -7%
96 | O=S(=O)(c1cccc(S(=O)(=O)N2CCC(Cc3ccccc3)CC2)c1)N1CCOCC1 | 82%
97 | CS(=O)(=O)Nc1ccc(C(=O)N2CCCCC2)cc1 | 11%
98 | Cn1cccc1C(=O)N1CCC2(CCCN(C(c3ccccc3)c3ccccc3)C2)CC1 | 71%
99 | COCCN(C(=O)COc1ccccc1)c1nnc(-c2cccnc2)s1 | 10%
100 | N#Cc1cnn(-c2ccccc2)c1N | 6%
101 | N#Cc1ccccc1OCC(=O)Nc1c(C(=O)C2CC2)oc2ccccc12 | 19%
102 | O=c1cnc2cnc(N3CCNCC3)nc2n1Cc1ccc(F)cc1 | 11%
103 | OCCOCCn1c(-c2ccccc2)nc(=S)c2c1CCCC2 | -6%
104 | COc1ccc(N2C(=O)CC(NC34CC5CC(CC(C5)C3)C4)C2=O)c(OC)c1 (stereo not drawn) | 67%
105 | C=CCn1c(-c2ccc(OC)c(OC)c2)cs/c1=N\c1ccccn1 | 64%
106 | O=C(O)c1[nH]c2ccccc2c1CC(=O)N1CCOCC1 | -8%
107 | CCCCn1c(SCC(=O)Nc2cc(C)on2)nc2ccccc2c1=O | -9%
108 | CC(C)NC(=O)CN1CCN(c2ncccn2)CC1 | 5%
109 | COc1ccccc1N1CCN(C(=O)CSc2ncccc2-c2nc3ccccc3[nH]2)CC1 | 98%
110 | COc1ccc(Cn2nnnc2C(c2ccc(N(C)C)cc2)N2CCC(C)CC2)cc1 (stereo not drawn) | 50%
111 | CC(C)c1cc(=O)oc2c3c4c(cc12)CCCN4CCC3 | 42%
112 | CC(NC(=O)c1cccc(C(F)(F)F)c1)C1CCCO1 (stereo not drawn) | 7%
113 | O=C(Nc1cccc(F)c1)N1CC2(CCN(C(=O)c3cnccn3)CC2)C1 | 3%
114 | CCCCn1c(O)c(C(CC)=NCCc2ccccc2)c(=O)[nH]c1=O | 33%
115 | Cc1cc(/C=N/n2cnnc2)c(C)n1-c1cccc(Cl)c1 | 52%
116 | CC1(C)CC(=O)CC(=NCC(=O)O)C1 | -14%
117 | Cc1cc(C(=O)N2CCCc3ccccc32)no1 | -7%
118 | O=C(CSc1nnc(-c2ccncc2)n1-c1ccc(F)cc1)NC(=O)NCc1ccco1 | 26%
119 | CCOc1ccccc1NC(=O)CCC(=O)O | -1%
120 | Cc1cc(Nc2ccc(C)c(F)c2)n2ncnc2n1 | -6%
121 | CCC(C)(C)n1nnnc1CN1CCSCC1 | 1%
122 | CC(C)N(Cc1ccccc1)S(=O)(=O)N(C)C | -1%
123 | O=C(CSc1nnc(Cc2ccccc2)n1-c1ccccc1)N1CCOCC1 | 64%
124 | CN(CCCNC(=O)Cn1cc2c(n1)CCCC2)C1CCCCC1 | 14%
125 | Cc1n[nH]c(C)c1-c1nc2ccccc2[nH]1 | -7%
126 | CC(C)=CC1C(C(=O)Nc2ccc(Br)cn2)C1(C)C (stereo not drawn) | -10%
127 | C=C(C)COc1ccc2c(C)c(CC(=O)OC)c(=O)oc2c1C | 86%
128 | CCOc1ccccc1-n1c(SCC(=O)N(C(C)C)C(C)C)nnc1-c1cccnc1 | 96%

Quoted from above: nos. 101–103
No. | Structure | AmpC inh no det
101 | N#Cc1ccccc1OCC(=O)Nc1c(C(=O)C2CC2)oc2ccccc12 | 19%
102 | O=c1cnc2cnc(N3CCNCC3)nc2n1Cc1ccc(F)cc1 | 11%
103 | OCCOCCn1c(-c2ccccc2)nc(=S)c2c1CCCC2 | -6%
